DUX4 inh: DUX4-mediated transcription inhibition | 293T-iDUX4 ZSCAN4-Gaussia luciferase reporter, 24 h; hits give low values | activity change, negative = inhibition, % (test concentration not listed) | 37,000 tested, 0.8% active;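 active = -10% or lower and over 25 points stronger than a control reporter; inconclusive = -10% or lower with a smaller gap; inactive = above -10%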;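 note: 0% = median of neutral control wells and -100% = median of positive control wells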
DUX4 inh difference: second read-out of DUX4 inh, no call of its own (marks repeat the call); Gaussia minus Italica difference, %; measured here: selective DUX4 reporter inhibition;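 worked out from the two reporters; negative = selective loss of the DUX4 reporter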
DUX4 inh control: second read-out of DUX4 inh, no call of its own (marks repeat the call); activity change, negative = inhibition, %; measured here: Italica tet-on control reporter;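 0 = neutral control and -100 = positive control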
Active calls of the source: *; ? = inconclusive; · = no result given. Not all compounds are listed (hit frequency here may not be typical).

No.	SMILES	DUX4 inh	DUX4 inh difference	DUX4 inh control
1	O=C(C[C@H]1CC[C@@H]2[C@H](COC[C@H](O)CN2S(=O)(=O)c2cccc(F)c2)O1)NCc1ccncn1	5	4	1.6
2	COc1ccccc1C(=O)N1C[C@@H]2[C@H](c3ccccc31)[C@H](CO)N2CC1CCCC1	5	3	1.9
3	CCCNC(=O)Nc1ccc2c(c1)OC[C@@H](C)N(C(=O)C1CCOCC1)C[C@@H](C)[C@@H](OC)CN(C)C2=O	4	1	3.4
4	Cc1ccc(S(=O)(=O)N2CC[C@@H]3[C@H]2c2cc(Br)ccc2N[C@@H]3CO)cc1	-5	-3	-2.4
5	COc1ccc(-c2ccc3n(c2=O)C[C@@H]2[C@@H](CO)[C@H](C(=O)NC4CCC4)N(S(C)(=O)=O)[C@H]32)cc1	-6	-2	-3.5
6	CCNC(=O)C[C@H]1CC[C@@H]2[C@@H](COc3ccc(NC(=O)c4ccc(F)c(F)c4)cc3C(=O)N2C)O1	0	0	0.1
7	OC[C@H]1[C@@H](c2ccccc2)C2(CN(Cc3ccccc3F)C2)N1Cc1ccccc1F	?	·	·
8	CC(C)C(=O)Nc1ccc2c(c1)C(=O)N(C)[C@H]1CC[C@@H](CC(=O)NCCc3ccccc3)O[C@@H]1CO2	0	-2	2.4
9	C[C@H]1CN([C@@H](C)CO)C(=O)c2cc(C#CC3CCCCC3)cnc2O[C@@H]1CN(C)S(=O)(=O)c1ccccc1	3	5	-1.8
10	COc1ccc(S(=O)(=O)N2CCC3(CC2)CN(Cc2ccncc2)[C@H](CO)c2[nH]c4cc(OC)ccc4c23)cc1	?	·	·
11	O=C(c1cccnc1)N1CC2(C1)[C@H](c1ccccc1)[C@@H](CO)N2Cc1ccccc1	2	7	-4.7
12	CCNC(=O)[C@@H]1[C@@H](CO)[C@@H]2Cn3c(ccc(C4=CCCCC4)c3=O)[C@H]1N2Cc1ccncc1	-8	-15	7.2

A stretch from the list above, for reference:
No.	SMILES	DUX4 inh	DUX4 inh difference	DUX4 inh control
7	OC[C@H]1[C@@H](c2ccccc2)C2(CN(Cc3ccccc3F)C2)N1Cc1ccccc1F	?	·	·
8	CC(C)C(=O)Nc1ccc2c(c1)C(=O)N(C)[C@H]1CC[C@@H](CC(=O)NCCc3ccccc3)O[C@@H]1CO2	0	-2	2.4
9	C[C@H]1CN([C@@H](C)CO)C(=O)c2cc(C#CC3CCCCC3)cnc2O[C@@H]1CN(C)S(=O)(=O)c1ccccc1	3	5	-1.8
10	COc1ccc(S(=O)(=O)N2CCC3(CC2)CN(Cc2ccncc2)[C@H](CO)c2[nH]c4cc(OC)ccc4c23)cc1	?	·	·
11	O=C(c1cccnc1)N1CC2(C1)[C@H](c1ccccc1)[C@@H](CO)N2Cc1ccccc1	2	7	-4.7
12	CCNC(=O)[C@@H]1[C@@H](CO)[C@@H]2Cn3c(ccc(C4=CCCCC4)c3=O)[C@H]1N2Cc1ccncc1	-8	-15	7.2

Additional entries
No.	SMILES	DUX4 inh	DUX4 inh difference	DUX4 inh control
13	CC(C)NC(=O)N1C[C@@H]2[C@H](c3ccccc31)[C@@H](CO)N2Cc1ccccn1	4	1	3.4
14	CC(=O)N1CC2(C1)[C@H](c1ccc(-c3ccc(C#N)cc3)cc1)[C@@H](CO)N2C(C)=O	-2	2	-3.7
15	CC(C)OC(=O)N(C)C[C@H]1OCc2cnnn2CCCC(=O)N([C@H](C)CO)C[C@H]1C	3	6	-2.8
16	O=C(C[C@H]1CC[C@H]2[C@@H](COC[C@@H](O)CN2Cc2nccs2)O1)NCc1ccc(Oc2ccccc2)cc1	?	·	·
17	COC(=O)C[C@H]1C[C@H]2c3cc(NS(C)(=O)=O)ccc3O[C@H]2[C@H](CO)O1	2	0	1.8
18	O=C(Cc1ccccn1)N1CC2(C1)[C@H](c1ccccc1)[C@@H](CO)N2C(=O)c1cccnc1	9	1	8.1
19	C[C@@H]1CN([C@H](C)CO)C(=O)c2ccccc2-c2ccccc2CO[C@@H]1CN(C)S(=O)(=O)c1cn(C)cn1	6	-15	20
20	CC(C)CC#Cc1ccc([C@@H]2[C@@H](CO)N3C(=O)CN(C(=O)c4ccccn4)C[C@H]23)cc1	13	-4	18
21	C[C@H](CO)N1C[C@H](C)[C@@H](CN(C)C(=O)[C@H]2CCCN2C)OCc2ccccc2-c2ccccc2C1=O	3	1	2.5
22	O=C(Nc1ccc(C(F)(F)F)cc1)Nc1ccc2c(c1)[C@H]1C[C@H](CC(=O)N3CCc4ccccc4C3)O[C@H](CO)[C@H]1O2	?	·	·
23	COc1cccc(NC(=O)N2CC(=O)N3[C@H](CO)[C@H](c4ccc(C#CC5CCCCC5)cc4)[C@H]3C2)c1	2	-2	3.5
24	C[C@H]1CC(=O)N[C@H](c2ccccc2)C/C=C\C[C@@H](c2ccccc2)NC1=O	-2	-1	-1.5
25	O=C(C[C@H]1CC[C@H]2[C@@H](COC[C@@H](O)CN2CCC(F)(F)F)O1)N1CCC(Cc2ccccc2)CC1	?	·	·
26	O=C(c1ccncc1)N1CC[C@@H]2[C@H](CO)Nc3ccc(Br)cc3[C@@H]21	?	·	·
27	O=C(c1ccccc1F)N1CC(=O)N2[C@@H](CO)[C@H](c3ccc(-c4ccc(F)cc4)cc3)[C@@H]2C1	0	-3	2.2
28	CC(C)NC(=O)N(C)C[C@H]1Oc2ccc(NC(=O)Nc3ccc4c(c3)OCO4)cc2CC(=O)N([C@@H](C)CO)C[C@@H]1C	1	1	0.0
29	COCC(=O)Nc1ccc2c(c1)C(=O)N(C)[C@@H]1CC[C@H](CC(=O)N3CCc4ccccc4C3)O[C@H]1CO2	6	4	1.8
30	N#Cc1cccc(-c2ccc3c(c2)[C@H]2[C@H](CCN2Cc2cncnc2)[C@@H](CO)N3)c1	19	16	2.6
31	CC(C)NC(=O)N1CC(=O)N2[C@H](C1)[C@H](c1ccc(C#CCN(C)C)cc1)[C@@H]2CO	8	9	-0.9
32	C[C@@H](O)C#Cc1ccc([C@@H]2[C@H](CO)N3CCCCN(S(=O)(=O)Cc4ccccc4)C[C@@H]23)cc1	24	-2	27
33	C[C@@H](NC(=O)C[C@H]1C=C[C@@H](NC(=O)c2cccnc2)[C@H](CO)O1)c1ccccc1	4	0	3.7
34	CCCNC(=O)C[C@H]1C[C@H]2c3cc(NC(=O)COC)ccc3O[C@H]2[C@H](CO)O1	4	-4	7.7
35	C[C@H]1CN([C@@H](C)CO)C(=O)c2cc(/C=C/c3ccccc3)cnc2O[C@H]1CN(C)S(=O)(=O)c1ccccc1F	-5	-3	-2.0
36	COc1ccccc1NC(=O)N1CCCCN2[C@H](CO)[C@@H](c3ccc(-c4cccc(F)c4)cc3)[C@@H]2C1	3	-15	18
37	C[C@@H]1CN([C@@H](C)CO)C(=O)CCCn2cc(nn2)CO[C@H]1CN(C)C(=O)Nc1ccnc(N2CCOCC2)c1	3	0	3.0
38	N#C[C@H]1[C@@H](c2ccc(C#CC3CCCCC3)cc2)[C@H](CO)N1C(=O)Nc1ccc(F)cc1	0	0	0.2
39	Cc1cccc(S(=O)(=O)N2CC[C@@H]3[C@H](CO)N(C)c4ccc(Br)cc4[C@@H]32)c1	13	6	7.6
40	CO[C@@H](C(=O)N(C)C[C@H]1OCc2ccccc2-c2ccccc2C(=O)N([C@@H](C)CO)C[C@H]1C)c1ccccc1	-1	-14	13
41	Cc1noc(C)c1S(=O)(=O)N(C)C[C@H]1OCc2cn(nn2)CCCC(=O)N([C@@H](C)CO)C[C@H]1C	-1	2	-3.4
42	O=C(Nc1ccccc1)N1CC(=O)N2[C@H](CO)[C@H](c3ccc(C#CC4CCCCC4)cc3)[C@@H]2C1	-6	-5	-1.5
43	CCNC(=O)[C@H]1[C@H](CO)[C@H]2Cn3c(cccc3=O)[C@@H]1N2C(=O)C1CCC1	7	5	1.2
44	O=C(C[C@H]1CC[C@H]2[C@@H](COC[C@@H](O)CN2S(=O)(=O)c2ccccc2)O1)N1CCOCC1	3	2	0.4
45	O=C(c1ccc2c(c1)OCO2)N1CC(=O)N2[C@H](CO)[C@H](c3ccc(C#CCC4CCCC4)cc3)[C@H]2C1	?	·	·
46	CCCNC(=O)N1CC2(C1)CN(Cc1cccc(F)c1)[C@@H](CO)c1[nH]c3cc(OC)ccc3c12	6	-14	20
47	O=C(Nc1ccc(F)cc1)N1CCCCN2[C@H](CO)[C@H](c3ccc(C#Cc4ccccn4)cc3)[C@H]2C1	18	-1	19
48	COc1cccc(C#Cc2ccc3c(c2)O[C@@H](CN(C)C(=O)c2ccccn2)[C@H](C)CN([C@@H](C)CO)S3(=O)=O)c1	2	3	-1.0
49	Cc1noc(C)c1NC(=O)N(C)C[C@H]1OCCCC[C@@H](C)Oc2ccc(N(C)C)cc2C(=O)N([C@@H](C)CO)C[C@H]1C	1	6	-4.7
50	CNC(=O)C[C@H]1CC[C@@H]2[C@H](COc3ccc(NC(=O)NCc4ccccc4)cc3C(=O)N2C)O1	-2	-5	2.8
51	COCC(=O)Nc1ccc2c(c1)C(=O)N(C)C[C@H](OC)[C@@H](C)CN(CC1CCCCC1)[C@H](C)CO2	?	·	·
52	CO[C@@H]1CN(C)C(=O)c2cc(NC(=O)C3CC3)ccc2OC[C@@H](C)N(C(=O)NC(C)C)C[C@@H]1C	-1	-2	0.5
53	COCC(=O)N1[C@H](C#N)[C@H](c2ccc(C#Cc3ccccc3F)cc2)[C@H]1CO	0	-1	0.6
54	OC[C@H]1[C@@H](c2ccc(-c3cccc(F)c3)cc2)[C@@H]2CN(Cc3cncnc3)CCCCN12	14	8	6.3
55	O=C(C[C@@H]1CC[C@H]2[C@@H](COC[C@@H](O)CN2Cc2ccncc2)O1)NCc1ccncc1	2	4	-1.1
56	CN(C)C(=O)c1cccc(-c2ccc([C@H]3[C@@H](CO)N4C(=O)CN(C(=O)C5CCC5)C[C@@H]34)cc2)c1	3	-2	5.7
57	O=C(Nc1ccc(Cl)c(Cl)c1)N[C@H]1CC[C@H](CCNC(=O)c2ccc(F)cc2)O[C@H]1CO	6	4	2.2
58	Cc1noc(C)c1NC(=O)N(C)C[C@@H]1OCc2ccccc2-c2ccccc2C(=O)N([C@H](C)CO)C[C@H]1C	7	9	-2.2
59	CO[C@H]1CN(C)C(=O)c2cc(NC(=O)C3CCCCC3)ccc2OC[C@H](C)N(Cc2cccnc2)C[C@@H]1C	0	-3	2.8
60	CCC(=O)N1[C@@H]2c3ccc(C4=CCCC4)c(=O)n3C[C@H]1[C@H](CO)[C@H]2C(=O)NCC1CCCCC1	1	-1	2.3

(next part)
Second line of a record: DUX4 inh | DUX4 inh difference | DUX4 inh control
61. COc1ccc(-c2ccc3c(c2)[C@@H]2[C@@H](CCN2S(=O)(=O)c2ccccc2C)[C@H](CO)N3C)cc1
    7 | 21 | -14
62. Cc1cccc(S(=O)(=O)N2C[C@H]3[C@@H](c4ccccc42)[C@H](CO)N3CC2CCCC2)c1
    -2 | -3 | 1.6
63. CC(=O)N1[C@H](CO)[C@H](c2ccccc2)[C@@H]1CN(C(=O)c1cccc(F)c1)C(C)C
    1 | 3 | -1.8
64. COc1cccc(-c2ccc([C@H]3[C@H](CO)N4CCCCN(CC5CC5)C[C@@H]34)cc2)c1
    -5 | -5 | 0.2
65. CNC(=O)C[C@@H]1CC[C@@H]2[C@H](COC[C@H](O)CN2S(=O)(=O)c2ccc(Oc3ccccc3)cc2)O1
    -6 | 0 | -6.0
66. COCC(=O)Nc1ccc2c(c1)[C@H]1C[C@@H](CC(=O)N[C@H](C)c3ccccc3)O[C@H](CO)[C@H]1O2
    2 | 3 | -1.7
67. C[C@H](CO)N1C[C@H](C)[C@H](CN(C)CC2CC2)Oc2ccc(N(C)C)cc2CC1=O
    5 | 7 | -1.6
68. COC(=O)C[C@@H]1CC[C@@H]2[C@H](COc3ccc(NC(=O)NCc4ccccc4)cc3C(=O)N2C)O1
    -6 | -7 | 1.2
69. CCCNC(=O)[C@@H]1[C@@H](CO)[C@@H]2Cn3c(ccc(C4=CCCC4)c3=O)[C@H]1N2CCC(F)(F)F
    3 | 3 | 0.6
70. CO[C@H]1CN(C)C(=O)c2ccc(NS(=O)(=O)c3ccc(C)cc3)cc2OC[C@@H](C)N(C)C[C@@H]1C
    1 | 0 | 1.3
71. CCN(C[C@@H]1N[C@@H](CO)[C@@H]1c1ccccc1)C(=O)c1ccncc1
    -2 | -3 | 0.7
72. O=S(=O)(c1cccc(F)c1)N1CC[C@@H]2[C@H]1c1cc(C#Cc3ccccc3F)ccc1N[C@@H]2CO
    -9 | -11 | 2.0
73. C[C@H]1CN([C@@H](C)CO)C(=O)c2cc(NS(=O)(=O)c3ccc(F)cc3)ccc2O[C@H]1CN(C)C(=O)Nc1ccccc1
    9 | 2 | 6.7
74. CS(=O)(=O)N1[C@H](C#N)[C@H](c2ccccc2)[C@H]1CO
    6 | 9 | -2.1
75. C/C=C/c1ccc([C@@H]2[C@@H](CO)N3CCCCN(S(=O)(=O)c4ccc(F)cc4)C[C@H]23)cc1
    -8 | -24 | 16
76. CCN(C[C@H]1N[C@H](CO)[C@@H]1c1ccccc1)C(=O)c1ccncc1
    4 | 0 | 3.6
77. C[C@@H]1CN([C@H](C)CO)C(=O)c2c(c3ccccc3n2C)-c2ccccc2CO[C@@H]1CN(C)C
    ? | · | ·

Bioassay records deposited in PubChem BioAssay by Broad Institute.
